Screening results from PubChem.
eIF4H inh: inhibitors of RNA binding by human eIF4H | Q15056 | eIF4H fluorescence polarization binding assay | inhibition, % at 35 µM | 0.94% of 290,000 active | AID 2012;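 active means 50% or more with normal probe brightness, or confirmed in later tests; inconclusive means above 50% with abnormal brightness, or retests that disagree; inactive means below 50% or failed in later tests; about a fifth of its hits are not listed in these tables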;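 further: calls also rest on retests at 20 µM and on dose response follow-up; 0% = protein and probe with vehicle and 100% = probe without protein; strong numbers were not always called active; many hits fall short of the cut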
Rce1 inh: yeast Ras-converting enzyme inhibition; yeast membranes, quenched prenylated peptide cleavage fluorescence; calls only; 0.27% of 290,000 active;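 active means fall in fluorescence gain of 50% or more versus controls, with final raw signal at or below 3038400; inconclusive means same 50% fall but final raw signal above 3038400; inactive means fall in fluorescence gain under 50%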;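 further: plate controls were neutral control wells for no effect and wells lacking membranes for full effect; tested at 10 µM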
Target sequence (Q03530 whole entry, looked up): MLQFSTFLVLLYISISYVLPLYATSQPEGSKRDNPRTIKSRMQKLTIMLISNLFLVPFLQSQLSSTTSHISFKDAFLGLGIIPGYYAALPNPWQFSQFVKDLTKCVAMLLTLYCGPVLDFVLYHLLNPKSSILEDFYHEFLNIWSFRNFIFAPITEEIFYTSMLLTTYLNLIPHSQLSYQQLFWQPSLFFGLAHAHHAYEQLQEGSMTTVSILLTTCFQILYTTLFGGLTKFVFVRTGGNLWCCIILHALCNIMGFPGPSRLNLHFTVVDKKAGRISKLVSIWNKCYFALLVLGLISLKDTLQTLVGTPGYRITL
UUG fidelity: modulators of start codon recognition fidelity in yeast; 0.13% of 350,000 active; S. cerevisiae UUG-firefly luciferase reporter, luminescence/redox ratio; AID 602363; activity score, % at 18.7 µM;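 active means replicate mean at a twofold rise or more, about +100% in these data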;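 further: firefly luciferase made from a UUG start codon reports start codon fidelity; reporter light over untreated wells divided by growth signal over untreated wells; some hits fall short of that in this replicate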
PABP FP inh: PABP-poly(A) binding inhibition; P11940; PABP-poly(A) RNA binding, fluorescence polarization; inhibition, % at 35 µM; 1% of 290,000 active;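 active means 50% or more with normal probe brightness, or confirmed in later tests; inconclusive means above 50% with abnormal brightness, or retests that disagree; inactive means below 50% or failed in later tests; about a fifth of its hits are not listed in these tables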;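 further: calls also rest on retests at 20 µM and on dose response follow-up; controls were probe without protein and protein plus probe with vehicle; some compounds called inactive have numbers as strong as hits; many hits fall short of the cut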
CSC inhib: cancer stem cell inhibition | cancer stem cell-like cells viability, luminescence | inhibition, % at 7.5 µM | 1.1% of 300,000 active;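 active means mean at 75% or more and at least half the replicates too; inconclusive means mean and replicates disagree; tested in HMLE shEcad cells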;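 further: 0% = median of negative and 100% = median of positive control wells; the first replicate is given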
MT1-MMP act inh: blocks activation of human MT1-MMP. P50281. HT1080 RFP-PRO-GFP cells, GFP/RFP ratio fluorescence, overnight; percent of plate control window, DMSO zero. GFP/RFP ratio change, % at 20 µM. 0.061% of 360,000 active. AID 651647;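 active means GFP/RFP ratio change of at least 30% with cell ATP level not reduced by more than half and red fluorescence within 50% of control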; further: strong numbers were not always called active
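Assay system: RFP-PRO-GFP reporter HT1080 cells; read-out basis: GFP/RFP fluorescence ratio; benchmarks: DMSO wells and RFP-L50D-GFP cells; doses: 20 µM single dose, 1% DMSO; schedule: overnight cell settling, then overnight compound exposure, 37 °C, 5% CO2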
Env fusion inh: inhibitors of HIV Env-mediated cell fusion. HeLa-JRFL Env/CEM21 cell fusion, luciferase. inhibition, % at 12.3 µM. 1.1% of 360,000 active;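 active means mean replicate inhibition score of at least 50 and every replicate individually at or above 50; inconclusive means only one of the two criteria met; inactive means mean below 50 and not all replicates reaching 50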;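 further: 0% = plate neutral controls and 100% = maraviroc near 300 nM; one replicate is shown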
MT1-MMP act inh RFP: second read-out of MT1-MMP act inh, no call of its own (marks repeat the call); RFP signal change, %; measured here: RFP expression control read;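 0 = vehicle wells; hits needed this value within 50% of zero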
Numbers without * were called inactive; i = inactive; u = inconclusive; x = not tested or not shown; & = joins results of further samples.

Molecule | eIF4H inh | Rce1 inh | UUG fidelity | PABP FP inh | CSC inhib | MT1-MMP act inh | MT1-MMP act inh RFP | Env fusion inh
Cc1cc(C(=O)Nc2ccc(S(=O)(=O)N3CCCC3)cc2)cs1 | -7 | i | -12 | 5 | 6 | 1 | -2 | 0
CCCNC(=O)N[C@@H](CCSC)C(=O)OC | 1 | i | -10 | 8 | -4 | -2 | -1 | -30
Cc1cc(Cl)nc(Cl)c1C(=O)NC(=O)NCCC(C)C | 6 | i | x | 7 | -4 | 1 | 2 | -1
Cc1cc(C)cc(SCc2noc(C(=O)NCCN(C)C)c2C(=O)NCCN(C)C)c1 | x | i | -18 | x | 25 | 8 | 8 | 2
CSc1nnnn1-c1ccc(C(=O)O)cc1 | -5 | i | -17 | 4 | -15 | 2 | 3 | x
COc1ccc(OCC(=O)Nc2ccc3nc(C)sc3c2)cc1 | -13 | i | x | -1 | 5 | 5 | 2 | 7
CCC(=O)N1CCC1(C)C(=O)Nc1ccc(C)c(C)c1 (stereo unspecified) | x | x | -23 | x | x | 1 | 2 | 15
Cc1ccc(S(=O)(=O)NCc2ccccc2)cc1C(=O)N1CCCC(C(F)(F)F)C1 (stereo unspecified) | x | i | -11 | x | -13 | 3 | -11 | 46
CCCCNc1c(-c2ccc(-c3cccc(Cl)c3)cc2)nc2ccc(Cl)cn12 | x | x | -8 | x | 38 | 0 | -6 | 10
CCN(C(=O)c1ccc(NC(C)=O)cc1)c1ccccc1 | -6 | i | x | 0 | x | 4 | 3 | -22
COc1cc(OC)cc(C(=O)N2CCCc3ccccc32)c1 | -6 | i | -27 | -3 | 10 | -3 | -1 | x
CCc1nc(SCc2ccc(OCC(C)C)cc2)n[nH]1 | 18 | i | -21 | 8 | 5 | -2 | -23 | -9
Cc1ccc(Nc2cc(C)nc3ncnn23)c(C)c1 | -8 | i | 2 | -3 | -4 | 1 | -3 | 8
CC12CCC(C(=O)NNc3ccccc3)(C(=O)C1=O)C2(C)C (stereo unspecified) | -5 | i | -3 | 12 | 52 | 0 | -1 | 10
COc1ccccc1NC(=O)Nc1cccc(C)n1 | -9 | i | -19 | 3 | 4 | -6 | -2 | 35
Cn1c(=O)c2c(nc(Cc3ccccc3)n2C)n(C)c1=O | 6 | i | -9 | 12 | -13 | -2 | -1 | 18
Cc1ccccc1NC(=O)c1cc[n+]([O-])cc1 | -11 | i | x | 0 | 8 | -1 | 3 | 11
CCN1CCN(C(=O)CN2C(=O)COc3ccc(C)cc32)CC1 | -5 | i | -10 | -3 | x | 2 | 5 | -1
CCCN1C(=S)SC(C)(C)C1/[N+]([O-])=C/c1ccc(S(=O)(=O)NC)cc1 (stereo unspecified) | -5 | i | -30 | -3 | 2 | 2 | 5 | -1
CCOC(=O)c1cc(NC(=O)COC)ccc1O | 2 | i | x | 1 | -8 | x | x | x

A second format for 2 compounds above.
> COc1cc(OC)cc(C(=O)N2CCCc3ccccc32)c1
  eIF4H inh: -6; Rce1 inh: i; UUG fidelity: -27; PABP FP inh: -3; CSC inhib: 10; MT1-MMP act inh: -3; MT1-MMP act inh RFP: -1; Env fusion inh: x

> CCc1nc(SCc2ccc(OCC(C)C)cc2)n[nH]1
  eIF4H inh: 18; Rce1 inh: i; UUG fidelity: -21; PABP FP inh: 8; CSC inhib: 5; MT1-MMP act inh: -2; MT1-MMP act inh RFP: -23; Env fusion inh: -9

Later entries:
Molecule | eIF4H inh | Rce1 inh | UUG fidelity | PABP FP inh | CSC inhib | MT1-MMP act inh | MT1-MMP act inh RFP | Env fusion inh
O=C(COc1ccc(Cl)cc1)N(Cc1ccco1)C1CCS(=O)(=O)C1 (stereo unspecified) | -2 | i | x | -1 | -9 | -2 | -2 | 11
CCOC(=O)c1c(N)n(CCOC(=O)c2cccs2)c2nc3ccccc3nc12 | 1 | i | -20 | 6 | 1 | -2 | 6 | x
COc1ccc2nccnc2c1[N+](=O)[O-] | -6 | i | -9 | -2 | -16 | -3 | 0 | -9
CCN(CC)S(=O)(=O)c1ccc(C(=O)Nc2cc(C)on2)cc1 | 0 | i | -16 | -12 | -2 | -2 | 2 | 4
Cc1nc2cc(N)ccc2n1C1CCCCC1 | -7 | i | x | 2 | 14 | -3 | -2 | 10
COC(=O)c1ccc(COC(=O)C(CCS(C)(=O)=O)N2C(=O)c3ccccc3C2=O)cc1 (stereo unspecified) | -2 | i | -20 | -2 | -3 | 4 | 7 | 7
CCCC(=O)Nc1nc(-c2ccc(OC)cc2)cs1 | -11 | i | 6 | -5 | -13 | -3 | -8 | x
O=C(CSc1ccc(Cl)cc1)NCC1CCCO1 (stereo unspecified) | 2 | i | x | 1 | 4 | 5 | 8 | x
CCN(CC)S(=O)(=O)c1cccc(NC(=O)COC(=O)C2CC3C=CC2C3)c1 (stereo unspecified) | -9 | i | x | 3 | 6 | -8 | -4 | -89
Cc1cccn2cc(CNC(=O)c3ccc(Br)o3)nc12 | -3 | i | -5 | -5 | 0 | -3 | 1 | -5
Cc1ccccc1CN1C[C@H]2CON(C)[C@H]2C[C@H]1c1cccc(Br)c1 | x | x | 16 | x | x | 3 | -1 | -19
CC(C)CCN1C(=O)c2ccc(C(=O)N3CCCCC3)cc2C1=O | x | i | 39 | x | -2 | 4 | -3 | 19
CC1Cc2ccccc2N1C(=O)CN1C(=O)COc2ccccc21 (stereo unspecified) | 2 | i | -13 | -4 | x | -1 | 0 | -143
CCc1ccc(-c2cc(C)no2)cc1S(=O)(=O)NCCc1ccc(S(N)(=O)=O)cc1 | -10 | i | x | 13 | -7 | -6 | -4 | -4
NC(=O)NC(CC(=O)NNC(=O)c1ccccn1)c1ccccc1Cl (stereo unspecified) | x | x | -34 | x | -10 | 1 | 2 | x
O=C(COc1ccc(Br)cc1)Nc1ccccc1C(=O)NC1CC1 | x | i | x | x | x | 3 | -1 | 4
CN1CCN(C(=O)c2cc3nc(-c4ccccc4)cc(C(F)(F)F)n3n2)CC1 | -5 | i | -1 | -12 | -11 | 3 | -6 | x
CN(C)CCCNc1nc(-c2ccccc2)nc2ccccc12 | 33 | i | -14 | 35 | 2 | -5 | 3 | -5
C#CCn1c(=NC(=O)CSC(C)=O)sc2cc(F)ccc21 | 8 | i | -13 | 0 | 13 | 3 | 1 | x
CCn1c(CSCc2ccccc2)n[nH]c1=S | 6 | i | -22 | -7 | -7 | 2 | 3 | -5
Cc1ccc(SCc2[nH]nc3c2C2(C(=O)Nc4ccc([N+](=O)[O-])cc42)C(C#N)=C(N)O3)cc1 (stereo unspecified) | 9 | i | 10 | 8 | 4 | 0 | -4 | 3
CN(C)C(CNC(=S)Nc1ccc(F)cc1)c1cccnc1 (stereo unspecified) | 2 | i | x | 4 | -16 | 1 | 7 | -4
O=C(Nc1n[nH]c(C(F)(F)F)n1)c1cccs1 | -6 | i | -5 | -4 | -14 | 0 | 0 | 1
c1ccc(C2=Nn3c(Cn4nnc5ccccc54)nnc3SC2)cc1 | -8 | i | -7 | -9 | -19 | 2 | 1 | -8
CNS(=O)(=O)Cc1ccc2[nH]cc(CCN(C)C)c2c1 | 30 | i | -8&-1 | 18 | -6&-6 | 3&8 | 2&5 | -8&0
Cc1ccccc1N/C(=N/S(=O)(=O)c1ccccc1)c1ccc(F)cc1 | -10 | i | x | 8 | 2 | 2 | 4 | -2
COCC1CCN(Cc2nc(COc3ccccc3)no2)C1 (stereo unspecified) | -3 | i | 32 | 8 | -10 | 5 | 6 | -10
CCOc1ccc(C(=O)N/N=C/c2cc(Cl)ccc2[N+](=O)[O-])cc1 | -5 | i | x | 0 | -5 | 10 | 1 | -12
CC(/C=N/NC(=O)c1cc(C(C)(C)C)[nH]n1)=C\c1ccccc1 | 8 | i | x | 2 | 3 | 9 | 4 | x
COC(=O)CN1C(=O)[C@H]2[C@@H](c3ccc(C)o3)N3C(=O)CN(Cc4ccccn4)C(=O)[C@@]3(Cc3ccccc3)[C@H]2C1=O | -6 | i | -10 | -5 | -4 | -3 | -2 | -22
Cc1ccc2cc(C(c3nnnn3C3CCCC3)N(Cc3ccco3)Cc3cccs3)c(=O)[nH]c2c1 (stereo unspecified) | -5 | i | -25 | 0 | 14 | -19 | -23 | -108
Nc1nnc(/C=C/c2cccc([N+](=O)[O-])c2)s1 | -2 | x | -17 | 7 | -4 | 2 | -6 | -18
O=C(CCN1C(=O)C2C3CCC(C3)C2C1=O)Nc1ccc(F)cc1 (stereo unspecified) | -15 | i | -39 | 16 | x | 0 | 1 | -2
O=C(COC(=O)c1cccnc1Cl)Nc1nc(-c2ccccc2)cs1 | -8 | i | x | 4 | x | -6 | 0 | x
COc1ccc(/C=N/NC(=O)COc2ccc3ccccc3c2)c(C(=O)O)c1OC | 2 | i | -12 | 5 | -8 | 1 | 0 | 18
Cc1c(NC(=O)CSc2nnc(-c3ccncc3)n2C)c(=O)n(-c2ccccc2)n1C | x | x | -2 | x | x | 3 | 3 | -6
COCC(=O)NC(C)c1nc2ccccc2[nH]1 (stereo unspecified) | -2 | i | -18 | 16 | -2 | 1 | 8 | u
C/C(=N\NC(=O)CNc1cccc(C(F)(F)F)c1)c1cccc(Br)c1 | 3 | i | x | -2 | -12 | 1 | 1 | 13
Cc1sc2nc(C3CCCCC3)nc(SCC(=O)N3CC(=O)Nc4ccccc43)c2c1C | -4 | i | -12 | -5 | -2 | -21 | -17 | x
NC(=O)c1ccc(C(F)(F)F)n(Cc2c(Cl)cccc2Cl)c1=O | -9 | i | -6 | 4 | 19 | -2 | -3 | 38

Reprinted from the part before: 6 entries, then new ones.
Structure,eIF4H inh,Rce1 inh,UUG fidelity,PABP FP inh,CSC inhib,MT1-MMP act inh,MT1-MMP act inh RFP,Env fusion inh
COc1ccc(/C=N/NC(=O)COc2ccc3ccccc3c2)c(C(=O)O)c1OC,2,i,-12,5,-8,1,0,18
Cc1c(NC(=O)CSc2nnc(-c3ccncc3)n2C)c(=O)n(-c2ccccc2)n1C,x,x,-2,x,x,3,3,-6
COCC(=O)NC(C)c1nc2ccccc2[nH]1 (stereo unspecified),-2,i,-18,16,-2,1,8,u
C/C(=N\NC(=O)CNc1cccc(C(F)(F)F)c1)c1cccc(Br)c1,3,i,x,-2,-12,1,1,13
Cc1sc2nc(C3CCCCC3)nc(SCC(=O)N3CC(=O)Nc4ccccc43)c2c1C,-4,i,-12,-5,-2,-21,-17,x
NC(=O)c1ccc(C(F)(F)F)n(Cc2c(Cl)cccc2Cl)c1=O,-9,i,-6,4,19,-2,-3,38
COc1ccc(OC)c(N(CC(=O)Nc2cccnc2)S(=O)(=O)c2ccc(C)cc2)c1,-2,i,-15,4,27,-2,-8,x
Cc1ccc(C(=O)NCCNC(=O)COc2ccc(C)c(C)c2)cn1,1,i,-15,1,-4,1,3,6
Cc1ccc(C(=O)N(CCc2ccccc2)Cc2ccccc2)cc1S(=O)(=O)N1CCOCC1,x,x,7,x,x,-3,-11,24
COc1ccc(NC(=O)c2cc(-c3cccnc3)nc3c(C)c(C)ccc23)c(OC)c1,-7,i,-13,10,2,-5,-6,x
O=C(Nc1ccc([N+](=O)[O-])cn1)c1ccc2c(c1)OCO2,-6,i,x,6,-6,5,1,-43
Cc1cccc(CN2CCCC(C(=O)N3CCCCC3)C2)c1 (stereo unspecified),2,i,-7,13,-13,3,5,-17
COc1ccccc1NS(=O)(=O)c1ccc(C(=O)N2CCN(c3ccccc3)CC2)cc1,x,x,10,x,-18,4,-7,12
Cc1cccc(NC(=O)COC(=O)C2COc3ccccc3O2)c1C (stereo unspecified),x,x,-12,x,-11,8,8,12
Cc1ccc(NC(=O)COC(=O)CCc2c(C)nc3ncnn3c2C)cc1,x,x,-12,x,x,3,1,-12
